Assay outcomes deposited in PubChem BioAssay by several laboratories.
Env fusion inh: HIV envelope-mediated fusion inhibition. HeLa-JRFL Env/CEM21 cell fusion, luciferase. actives 1.1% (n = 360,000). inhibition, % at 12.3 µM;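 active means mean replicate inhibition score of at least 50 and every replicate individually at or above 50; inconclusive means only one of the two criteria met; inactive means mean below 50 and not all replicates reaching 50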;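 further: 0% = plate neutral controls and 100% = maraviroc near 300 nM; one replicate is shown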
Rce1 inhib: inhibitors of yeast Ras-converting enzyme; calls only; actives 0.27% (n = 290,000); Q03530; yeast membranes, quenched prenylated peptide cleavage fluorescence;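 active means fall in fluorescence gain of 50% or more versus controls, with final raw signal at or below 3038400; inconclusive means same 50% fall but final raw signal above 3038400; inactive means fall in fluorescence gain under 50%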;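 further: plate controls were neutral control wells for no effect and wells lacking membranes for full effect; tested at 10 µM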
Target sequence (Q03530 whole entry, looked up): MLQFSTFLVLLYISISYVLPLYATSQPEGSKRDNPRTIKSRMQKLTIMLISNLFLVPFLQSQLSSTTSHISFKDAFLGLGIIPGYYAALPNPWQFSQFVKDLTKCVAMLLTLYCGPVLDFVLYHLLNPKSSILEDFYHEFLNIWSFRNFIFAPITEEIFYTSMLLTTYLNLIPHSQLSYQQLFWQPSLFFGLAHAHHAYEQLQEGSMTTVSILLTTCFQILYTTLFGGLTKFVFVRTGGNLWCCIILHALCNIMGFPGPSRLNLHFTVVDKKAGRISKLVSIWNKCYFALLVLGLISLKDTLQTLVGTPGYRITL
CSC inhib: cancer stem cell inhibition | actives 1.1% (n = 300,000) | inhibition, % at 7.5 µM | cancer stem cell-like cells viability, luminescence | AID 2717;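 active means mean at 75% or more and at least half the replicates too; inconclusive means mean and replicates disagree; tested in HMLE shEcad cells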;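 further: 0% = median of negative and 100% = median of positive control wells; the first replicate is given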
MT1-MMP act inh: MT1-MMP (human) activation inhibition; HT1080 RFP-PRO-GFP cells, GFP/RFP ratio fluorescence, overnight; percent of plate control window, DMSO zero; actives 0.061% (n = 360,000); P50281; GFP/RFP ratio change, % at 20 µM; AID 651647;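 active means GFP/RFP ratio change of at least 30% with cell ATP level not reduced by more than half and red fluorescence within 50% of control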; further: strong numbers were not always called active
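Material – HT1080 RFP-PRO-GFP cells · Control set – DMSO wells and RFP-L50D-GFP cells · Incubation – overnight cell settling, then overnight compound exposure, 37 °C, 5% CO2 · Compound dosing – single-point 20 µM compound, 1% DMSO · Read-out – GFP/RFP fluorescence ratio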
eIF4H inh: inhibitors of RNA binding by human eIF4H | AID 2012 | actives 0.94% (n = 290,000) | eIF4H fluorescence polarization binding assay | inhibition, % at 35 µM;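 active means 50% or more with normal probe brightness, or confirmed in later tests; inconclusive means above 50% with abnormal brightness, or retests that disagree; inactive means below 50% or failed in later tests; about a fifth of its hits are not listed in these tables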;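 further: calls also rest on retests at 20 µM and on dose response follow-up; 0% = protein and probe with vehicle and 100% = probe without protein; strong numbers were not always called active; many hits fall short of the cut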
UUG fidelity: modulators of start codon recognition fidelity in yeast; AID 602363; actives 0.13% (n = 350,000); activity score, % at 18.7 µM; S. cerevisiae UUG-firefly luciferase reporter, luminescence/redox ratio;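 active means replicate mean at a twofold rise or more, about +100% in these data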;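 further: firefly luciferase made from a UUG start codon reports start codon fidelity; reporter light over untreated wells divided by growth signal over untreated wells; some hits fall short of that in this replicate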
PABP FP inh: PABP-poly(A) binding inhibition; P11940; PABP-poly(A) RNA binding, fluorescence polarization; inhibition, % at 35 µM; actives 1% (n = 290,000); AID 2014;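 active means 50% or more with normal probe brightness, or confirmed in later tests; inconclusive means above 50% with abnormal brightness, or retests that disagree; inactive means below 50% or failed in later tests; about a fifth of its hits are not listed in these tables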;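 further: calls also rest on retests at 20 µM and on dose response follow-up; controls were probe without protein and protein plus probe with vehicle; some compounds called inactive have numbers as strong as hits; many hits fall short of the cut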
Target sequence (P11940 whole entry, looked up): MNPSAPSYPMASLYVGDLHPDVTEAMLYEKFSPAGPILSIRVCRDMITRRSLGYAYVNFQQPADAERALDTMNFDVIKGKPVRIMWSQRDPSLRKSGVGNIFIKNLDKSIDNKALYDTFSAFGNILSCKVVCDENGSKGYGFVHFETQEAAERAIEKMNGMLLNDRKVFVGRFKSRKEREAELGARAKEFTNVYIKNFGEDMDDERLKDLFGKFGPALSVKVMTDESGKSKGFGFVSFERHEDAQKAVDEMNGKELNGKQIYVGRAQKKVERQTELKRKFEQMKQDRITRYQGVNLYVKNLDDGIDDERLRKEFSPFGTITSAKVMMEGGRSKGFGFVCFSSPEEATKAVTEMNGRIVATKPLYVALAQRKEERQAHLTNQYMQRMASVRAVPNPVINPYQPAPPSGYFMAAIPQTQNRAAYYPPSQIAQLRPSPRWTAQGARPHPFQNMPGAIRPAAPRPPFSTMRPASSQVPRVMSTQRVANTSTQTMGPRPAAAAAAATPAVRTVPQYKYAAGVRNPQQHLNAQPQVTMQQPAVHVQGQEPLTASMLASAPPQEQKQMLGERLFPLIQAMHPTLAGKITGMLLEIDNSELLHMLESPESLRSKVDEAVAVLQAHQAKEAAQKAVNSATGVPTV
eIF4H inh retest: also measured in eIF4H inh; calls as there; inhibition, %; compound at 20 µM; confirmation average;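 mean of two retest wells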
PABP FP inh retest: also measured in PABP FP inh; calls as there; inhibition, %; compound at 20 µM; confirmation repeats;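 mean of two retest wells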
MT1-MMP act inh RFP: second read-out of MT1-MMP act inh, no call of its own (marks repeat the call); RFP signal change, %; measured here: RFP expression control read;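 0 = vehicle wells; hits needed this value within 50% of zero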
Active calls of the source: *; i = inactive; ? = inconclusive; . = not tested or not shown; & = joins results of further samples.

SMILES | Env fusion inh | Rce1 inhib | CSC inhib | MT1-MMP act inh | MT1-MMP act inh RFP | eIF4H inh | UUG fidelity | PABP FP inh | others
COc1ccc(C(CC(=O)c2ccccc2)CC(=O)c2ccccc2)cc1 | 5 | i | -8 | . | . | -1 | . | 63 | eIF4H inh retest=1;PABP FP inh retest=6
CCN(c1ccccc1)S(=O)(=O)c1ccc(C(=O)N(CCCN(C)C)c2nc3c(C)cccc3s2)cc1 | -4 | i | -14 | 0 | 1 | -8 | 4 | 13
CCc1ccc(CN2CCN(c3ncccn3)CC2)cc1 | -12 | i | 4 | 5 | 0 | 10 | 6 | -2
COc1ccccc1C(=O)C1CCCN(C(=O)c2cccnc2SC)C1 (stereo not drawn) | 7 | i | -7 | 1 | -4 | 3 | . | -4
CCOC(=O)Nc1ccc(C)cc1Br | 2 | i | -9 | -2 | -1 | -6 | -10 | -1
Cc1ccc(NC(=O)COC(=O)C2=NNC(=O)CC2)c(Br)c1 | . | . | 9 | 7 | 0 | . | -12 | .
C=C(C)C1CC=C(C)/C(=N/NC(=O)COc2ccc(C)cc2)C1 (stereo not drawn) | -117 | i | -14 | 2 | 3 | -10 | -14 | -2
CCOc1ccc(-c2cc(CCCC(=O)NCCC(C)C)no2)cc1 | 13 | . | -11 | -2 | -1 | -6 | . | -12
O=C(CN(Cc1ccccc1Cl)C(=O)CN1C(=O)CSc2ccccc21)NC1CC1 | -20 | i | -38 | -4 | -3 | 2 | -16 | 8
CC1=CS/C(=C(/C#N)C(=O)N2CCOCC2)N1c1ccccc1 | . | i | -3 | 2 | 9 | 0 | -18 | -3
CC(=O)Nc1nonc1C(=O)N1CCC(C)CC1 | -11 | i | 1 | 1 | 2 | -5 | -19 | -3
C=CCOC(=O)C1=C(C)NC(=S)NC1/C=C/c1ccccc1 (stereo not drawn) | 33 | i | . | -5 | -8 | -2 | -20 | -13
Cc1cc(Cl)ccc1OC(C)C(=O)Nc1cnn(CCCC(=O)O)c1 (stereo not drawn) | -6 | i | 9 | 3 | 3 | 2 | -6 | 7
COc1nc(NC2CCCCC2)nc(NC(C)(C)C)n1 | -4 | i | 3 | -3 | -8 | . | . | .
N#C/C(=C(/O)COC(=O)c1cccnc1Cl)c1nc2ccccc2[nH]1 | -7 | i | -4 | -9 | -2 | 26 | . | -7
O=C(Cn1cc(C(=O)C2CC2)c2ccccc21)NCc1ccccc1 | . | i | 2 | 2 | -2 | 9 | 17 | 7
C=CCNc1nc(Cl)nc(NC2CCCCC2)n1 | 16 | i | -12 | -2 | -2 | 2 | -7 | 7
Fc1ccc(-c2nc(-c3cccs3)[nH]c2-c2ccc(F)cc2)cc1 | . | i | 16 | -14 | -24 | 7 | -10 | 0
CCN(CC)S(=O)(=O)c1ccc(NC(=S)Nc2ccc(F)cc2)cc1 | -8 | i | -16 | 3 | -4 | -1 | -18 | 11
Cc1cc(C)cc(NC(=O)CSc2nc3ccccc3nc2N2CCCC2)c1 | 23 | i | 47 | 0 | -9 | -4 | 15 | 0
CC1CCCN(C(=O)COC(=O)CNS(=O)(=O)c2ccc3ccccc3c2)C1 (stereo not drawn) | -23 | i | -11 | 1 | 3 | . | -13 | .
Cc1ccc(S(=O)(=O)Nc2c(C(=O)O)[nH]c3ccccc23)cc1C | 0 | i | -2 | 1 | 6 | 2 | -1 | 15
COC(=O)CCCC1=CC2=CC(=O)C(C)(OC(=O)c3cccs3)C(=O)C2=CN1C1CCCC1 (stereo not drawn) | 4 | i | -10 | 5 | 5 | 12 | 0 | 32
COc1cc2[nH]c(=O)n(CCC(=O)N3CCN(c4cc(Cl)ccc4C)CC3)c(=O)c2cc1OC | 5 | . | 0 | 3 | -7 | 4 | -10 | -2
CN(C)c1ccc(/C=C(\C#N)C(=O)Nc2nc3c(s2)CCN(Cc2ccccc2)C3)cc1 | 6 | i | 3 | -226 | 3 | ? | -3 | ?

(list continues)
SMILES | Env fusion inh | Rce1 inhib | CSC inhib | MT1-MMP act inh | MT1-MMP act inh RFP | eIF4H inh | UUG fidelity | PABP FP inh | others
CC(=O)OCC(OC(C)=O)C(OC(C)=O)C(OC(C)=O)C(=O)Nc1cccc(C)c1 (stereo not drawn) | 1 | i | -8 | 0 | 2 | 13 | -11 | 16
CCN1CCN(C(=O)c2ccc3c(c2)N(Cc2ccc(C)cc2)CCS3)CC1 | 0 | i | 31 | -4 | -1 | 1 | 1 | 11
CC1CCCc2sc3ncn(N)c(=N)c3c21 (stereo not drawn) | -3 | i | 22 | -4 | 1 | -7 | 1 | -5
CCCn1c(SCC(=O)Nc2ccccc2Oc2ccccc2)n[nH]c1=O | . | i | . | 0 | -5 | -2 | -18 | 4
CCOC(=O)Cc1csc(NC(=O)CSc2nnc(C(C)C)n2CC)n1 | 5 | i | -10 | -5 | -2 | -9 | -9 | -2
O=C(NCCNC(=O)c1ccccc1F)c1ccccn1 | 10 | i | -12 | 1 | 4 | 4 | -16 | -11
Cc1cnc(SCc2ccc(Cl)cc2Cl)[nH]c1=O | -12 | i | 16 | 2 | 2 | -1 | . | 5
COc1cc(C(=O)NNC(=O)CNC(=O)c2ccc(Br)o2)cc(OC)c1OC | . | i | -2 | -2 | 1 | 0 | 0 | 7
Cc1ccnc(SCC(=O)Nc2cccc(S(=O)(=O)N3CCOCC3)c2)n1 | -4 | . | -13 | -3 | -7 | . | -6 | .
COc1cccc(-c2nc(CS(=O)(=O)CC(=O)NCCc3ccc(OC)cc3OC)c(C)o2)c1 | 5 | i | -11 | -1 | -4 | -6 | 8 | 0
Cc1ccc(NS(=O)(=O)c2ccc(OCC(=O)NCC3CCCO3)cc2)cc1 (stereo not drawn) | 20 | i | 5 | -7 | -3 | 5 | . | -2
OC(c1ccccn1)C1CCN(Cc2nc(C(c3ccccc3)c3ccccc3)no2)CC1 (stereo not drawn) | 4 | i | -12 | -2 | 2 | 2 | . | -1
COc1ccc(Cn2c(-c3ccco3)nc3oc4cc(OC)ccc4c(=O)c3c2=O)cc1 | 16 | i | -4 | 0 | 4 | 36 | -14 | 21
COc1ccc(-c2cccc(-c3cc(=O)oc4ccc(C(C)(C)C)cc34)c2)cc1 | 28 | . | . | -4 | -11 | . | -1 | .
Cc1cc(C)nc(NC(=O)Cc2cccs2)n1 | . | . | -10 | 12 | 6 | 12 | 0 | -6
COc1ccc([N+](=O)[O-])cc1N(CC(O)CN(CC(C)C)CC(C)C)S(=O)(=O)c1ccccc1 (stereo not drawn) | . | i | -11 | -8 | -1 | 0 | -6 | -8
C=CCNc1oc(-c2ccc(OC)cc2)nc1C#N | -58 | i | 1 | 1 | -3 | -1 | 8 | 0
COc1ccc(C2=NOC(Cn3nc(C(=O)O)cc3-c3ccccc3)C2)cc1 (stereo not drawn) | 35 | i | 0 | 2 | 7 | -5 | -12 | -8
O=C1c2cccnc2C(=O)N1C1CCCCC1 | . | i | -1 | -2 | -3 | -1 | -1 | -7
CS(=O)(=O)N(CC(=O)N1CCc2ccccc2C1)c1cccc([N+](=O)[O-])c1 | 3 | i | -10 | 0 | 1 | 11 | -7 | 14
Cc1cccc(C)c1NC1=NC(=S)N(c2ccc(N(C)C)cc2)C1(C)C | . | i | . | -3 | -7 | -2 | -14 | 2
Cn1c(=O)oc2cc(S(=O)(=O)NCCC(=O)NCc3ccc(F)cc3)ccc21 | 7 | i | 2 | 0 | 7 | -3 | -14 | -2
CCCCOC(=O)c1ccc(NC(=O)COC(=O)c2ccc3ncsc3c2)cc1 | . | . | -4 | -3 | 1 | . | -10 | .
CC1(C)CCSC(/C=C/c2ccccc2)=N1 | -69 | i | . | -15 | -22 | -15 | -4 | 1
O=C(O)Cc1ccc(NC(=O)c2cccc(NC(=O)c3ccco3)c2)cc1 | -5 | i | -12 | 0 | 1 | 17 | . | 8

Random excerpt: 4 records from the list
SMILES | Env fusion inh | Rce1 inhib | CSC inhib | MT1-MMP act inh | MT1-MMP act inh RFP | eIF4H inh | UUG fidelity | PABP FP inh | others
OC(c1ccccn1)C1CCN(Cc2nc(C(c3ccccc3)c3ccccc3)no2)CC1 (stereo not drawn) | 4 | i | -12 | -2 | 2 | 2 | . | -1
CC1CCCc2sc3ncn(N)c(=N)c3c21 (stereo not drawn) | -3 | i | 22 | -4 | 1 | -7 | 1 | -5
COc1ccc([N+](=O)[O-])cc1N(CC(O)CN(CC(C)C)CC(C)C)S(=O)(=O)c1ccccc1 (stereo not drawn) | . | i | -11 | -8 | -1 | 0 | -6 | -8
Cc1cccc(C)c1NC1=NC(=S)N(c2ccc(N(C)C)cc2)C1(C)C | . | i | . | -3 | -7 | -2 | -14 | 2

(continued)
SMILES | Env fusion inh | Rce1 inhib | CSC inhib | MT1-MMP act inh | MT1-MMP act inh RFP | eIF4H inh | UUG fidelity | PABP FP inh | others
S=C(NCCc1c[nH]c2ccccc12)NC1CC1 | -8 | i | 2 | -3 | 2 | 0 | -32 | 1
CC1CN(Cc2nc3c(c(=O)n(C)c(=O)n3C)n2CCN2CCOCC2)CC(C)O1 (stereo not drawn) | -403 | i | . | 2 | 8 | 7 | -7 | 18
Cc1ccc(-c2cn(-c3ccc(OC(F)F)cc3)c3[n+]2CCCCC3)cc1 | -3 | i | -2 | 8 | -29 | 2 | -3 | 8
Cc1ccc(-c2nc3ncccn3c2Nc2ccc3c(c2)OCCO3)o1 | -6 | i | -21 | -6 | 2 | -1 | -31 | 0
O=C(NCCO)C(=O)c1c(-c2ccccc2)cc2ccccn12 | 7 | i | -16 | -1 | 0 | 0 | -17 | 1
CCN(CC)S(=O)(=O)c1cnccc1N1CCN(c2cccc(Cl)c2)CC1 | 23 | i | 5 | 3 | -2 | -13 | -10 | 3
O=C(CC(c1ccco1)C1CCCCC1=O)c1ccccc1 (stereo not drawn) | -4 | i | -14 | -6 | -1 | -6 | -8 | 11
C[C@H]1CN([C@@H](C)CO)C(=O)CCCn2nncc2CO[C@H]1CN(C)S(=O)(=O)c1ccc2c(c1)OCCCO2 | -20 | . | . | 3 | 2 | . | -4&33 | .
Cc1oc2cc(OC(=O)c3ccco3)ccc2c(=O)c1-c1nc2ccccc2n1C | -2 | i | 3 | 6 | 3 | -1 | . | 11
Cc1cc(C)cc(NC(=O)c2ccc(N3C(=O)C4CCCCC4C3=O)cc2)c1 (stereo not drawn) | -12 | i | 1 | 5 | -3 | -2 | 4 | 2
CCC1Nc2ncnc(N3CCCCC3)c2N(Cc2ccc(C)cc2)C1=O (stereo not drawn) | -9&25 | . | . | -1&0 | 0&0 | . | -9&-3 | .
COC(=O)c1ccc(NC(=S)NNC(=O)c2ccccc2)cc1 | 22 | i | -6 | 4 | 3 | 3 | . | 9
O=[N+]([O-])c1ccccc1/C=C/C=N/Nc1nc(N2CCCCC2)nc(N2CCCCC2)n1 | 1 | i | -15 | -9 | -4 | 6 | . | -13
CCCN1CCN(C(=O)c2c(Cl)cnn2C)CC1 | 7 | i | -7 | -3 | 2 | -1 | -11 | 4
Cc1ccccc1C(=O)N1CCC(C(=O)NN2C(=O)NC3(CCCCC3)C2=O)CC1 | -3 | . | -14 | 1 | 4 | . | -9 | .
Cc1ccc(N2C(=O)CSC2c2ccc3c(c2)OCO3)cc1 (stereo not drawn) | 19 | i | -3 | -8 | -2 | 5 | . | -2
C=CCOC(=O)C1=C[C@@H](c2coc3ccccc3c2=O)C[C@@H](OCCCCO)O1 | 15 | i | -30 | -6 | -2 | . | 6 | .
O=C(CNC(=O)c1ccco1)OCC(=O)c1cccc2ccccc12 | . | i | 10 | 2 | 6 | 9 | -14 | -8
